GALR2 agonist: GALR2 (human) receptor agonism; O43603; GALR2-expressing cells, agonist activation read-out; activation, %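 (tested at 5 µM)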; actives 0.48% (n = 140,000); AID 803;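 active = above mean plus 3 SD of all compounds, about 5% in these data, not always enough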;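 note: 0% = vehicle buffer wells and 100% = reference agonist at full effect; tested in CHO reporter cells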
HSV augment: HSV replication enhancement. maximum fold increase. actives 0.005% (n = 220,000). HSV replication augmentation in cells, fold increase;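 active = peak rise of 1.5-fold or more in the series; tested in PC3 cells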;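 note: first round at 10 µM; read as green reporter fluorescence; hits show the peak of a series up to 25 µM; 1 = signal of infected wells without compound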
PKD1 kinase inh: inhibitors of human PKD1 kinase; PKD1 kinase fluorescence polarization assay; inhibition, %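 (about 10 µM by stock and volumes)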; actives 0.056% (n = 200,000);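 active = inhibition of 50% or more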;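 note: controls were vehicle for no effect and a reference inhibitor for full effect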
Target sequence (Q15139 whole entry, looked up): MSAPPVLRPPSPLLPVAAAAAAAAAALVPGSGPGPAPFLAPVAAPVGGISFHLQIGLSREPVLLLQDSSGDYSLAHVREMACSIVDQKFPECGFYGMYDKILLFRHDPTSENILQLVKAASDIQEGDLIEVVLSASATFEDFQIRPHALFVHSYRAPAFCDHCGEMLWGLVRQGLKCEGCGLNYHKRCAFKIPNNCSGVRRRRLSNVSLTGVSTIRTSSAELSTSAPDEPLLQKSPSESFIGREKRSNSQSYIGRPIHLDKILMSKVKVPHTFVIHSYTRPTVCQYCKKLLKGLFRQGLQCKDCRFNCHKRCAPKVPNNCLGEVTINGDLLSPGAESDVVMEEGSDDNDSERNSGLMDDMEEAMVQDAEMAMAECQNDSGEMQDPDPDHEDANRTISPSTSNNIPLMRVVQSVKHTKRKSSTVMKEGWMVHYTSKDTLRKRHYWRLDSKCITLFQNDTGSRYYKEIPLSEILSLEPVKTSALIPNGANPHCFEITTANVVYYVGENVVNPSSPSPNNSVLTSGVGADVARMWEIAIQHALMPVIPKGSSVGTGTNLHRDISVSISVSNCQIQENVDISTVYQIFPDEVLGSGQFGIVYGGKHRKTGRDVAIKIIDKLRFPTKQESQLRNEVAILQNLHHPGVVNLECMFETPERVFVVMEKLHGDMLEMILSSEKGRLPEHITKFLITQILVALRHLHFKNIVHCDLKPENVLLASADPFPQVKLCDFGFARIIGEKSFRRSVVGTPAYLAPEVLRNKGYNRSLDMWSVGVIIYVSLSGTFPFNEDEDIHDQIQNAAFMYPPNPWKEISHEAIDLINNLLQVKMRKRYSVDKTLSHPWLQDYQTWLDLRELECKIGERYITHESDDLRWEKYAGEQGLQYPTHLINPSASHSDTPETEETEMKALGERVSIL
INS promoter inh: TRM-6 insulin promoter activity inhibition | TRM-6 cells (human fetal islet line), insulin promoter-eGFP reporter, imaging; reporter expression induced with tamoxifen | inhibition, % at 2 µM | actives 0.9% (n = 130,000);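 active = inhibition above the mean plus 3 SD, with well images judged a real hit on visual review, cut at about 60% in these data, passing the limit was not always enough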
RGS16-Gao HTS: modulates binding between human RGS16 and Galphao. binding response (% of control), % at 10 µM. actives 0.38% (n = 220,000). O15492+P09471. bead-based flow cytometry RGS16-Galphao binding, fluorescence; actives lie on both sides;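 active = below 25% or above 175%, edge rows of some plates excepted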;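 note: Galphao activated by GDP with aluminum fluoride before binding; 100% = wells without compound and 0% = beads without RGS; some results beyond the cut were filed as inactive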
INS promoter inh cell count: further read-out of INS promoter inh, marked with its call; normalized cell count, %; measured here: cell count, toxicity; reference of the scale not given here;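 cells exposed to compound for 48 h; stained nuclei by imaging scaled within each plate; lower means fewer cells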
HSV augment primary fold: also measured in HSV augment; calls as there; fold increase; compound at 10 µM; measured here: primary screen fold increase 10 uM; tested in PC3 cells;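 GFP signal in the first replicate; 1 = infected wells without compound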
Numbers without * were called inactive; i = inactive; . = no result given; & = joins results of further samples.

SMILES | GALR2 agonist | HSV augment | HSV augment primary fold | PKD1 kinase inh | INS promoter inh | INS promoter inh cell count | RGS16-Gao HTS
C=C(C)CN(CC)C(=O)CC1C(=O)NCCN1Cc1c(F)cccc1Cl (configuration not stated) | . | i | 1.1 | -4 | . | . | 81
Cc1cccc(C(=O)NCC(=O)N2CC(=O)Nc3ccccc32)c1 | . | i | 1 | -1 | 4 | 76 | 108
O=C(CSc1nnc(-c2ccc3c(c2)OCO3)n1-c1ccccc1)c1ccccc1 | -1.4 | i | 1.1 | -16 | . | . | 99
C=CCN=C1S/C(=C/c2cccc([N+](=O)[O-])c2)C(=O)N1CC=C | . | i | 0.88 | . | . | . | 98
CCOC(=O)CNC(=S)N(Cc1ccccc1F)C1CCCCC1 | . | i | 0.97 | -4 | . | . | 105
COc1ccc(NC(=O)N2CCCc3ccccc32)cc1 | -1.7 | i | 1 | 13 | . | . | 102
COc1ccc(OC)c(NC(=O)c2cccc(S(=O)(=O)N(Cc3ccccc3)c3ccccc3OC)c2)c1 | 0.2 | i | 1.1 | -1 | -27 | 66 | 104
CC(=O)Nc1ccc(/C=N/Nc2nc3ccccc3s2)cc1 | . | i | 0.9 | . | . | . | 78
Cc1cccc(NC(=O)CC2CCC2)c1 | -3.6 | i | 0.85 | -6 | 22 | 126 | 106
O=C(Nc1ncn[nH]1)c1ccc(S(=O)(=O)N2CCOCC2)cc1 | . | i | 0.87 | -8 | . | . | 99
CC(C)C(c1nnnn1C1CCCC1)N(C)C1CCCCC1 (configuration not stated) | -1.6 | i | 0.85 | -2 | . | . | 106
COc1ccc(-c2nc3n(c(=O)c2C#N)CCS3)cc1OC | . | i | 1 | 7 | . | . | 104
Nc1nc(CN2CCC(Cc3ccccc3)CC2)nc(Nc2ccccc2)n1 | -2.5 | i | 0.78 | -1 | 0 | 155 | 98
CSc1ccccc1C(=O)NCc1ccccc1 | . | i | 1.1 | 6 | 33 | 35 | 105
O=[N+]([O-])c1ccc(-n2nnnc2-c2ccccc2)cc1 | . | i | 0.98 | -3 | 41 | 65 | 96
Cc1nnc(SCc2cn3ccsc3n2)n(N)c1=O | -1.2 | i | 0.9 | -11 | 16 | 100 | 100
O=C(NCc1ccco1)c1cc(-c2ccco2)on1 | -0.6 | i | 1 | 5 | 30 | 72 | 98
c1ccc(C(c2nnnn2Cc2ccco2)N2CCN(c3nc4ccccc4s3)CC2)cc1 (configuration not stated) | -0.9 | i | 0.86 | -1 | 16 | 60 | 118
COc1ccccc1N(CC(=O)N/N=C/c1ccccc1C(=O)O)S(C)(=O)=O | . | i | 1.4 | . | . | . | 100
Cc1ccccc1OCCCCCNCCO | -1.8 | i | 1 | -5 | 9 | 120 | 100

Structures above with a nitro group on carbon, in the order listed:
SMILES | GALR2 agonist | HSV augment | HSV augment primary fold | PKD1 kinase inh | INS promoter inh | INS promoter inh cell count | RGS16-Gao HTS
C=CCN=C1S/C(=C/c2cccc([N+](=O)[O-])c2)C(=O)N1CC=C | . | i | 0.88 | . | . | . | 98
O=[N+]([O-])c1ccc(-n2nnnc2-c2ccccc2)cc1 | . | i | 0.98 | -3 | 41 | 65 | 96

Returning to the listing with the 4 entries that preceded the break.
SMILES | GALR2 agonist | HSV augment | HSV augment primary fold | PKD1 kinase inh | INS promoter inh | INS promoter inh cell count | RGS16-Gao HTS
O=C(NCc1ccco1)c1cc(-c2ccco2)on1 | -0.6 | i | 1 | 5 | 30 | 72 | 98
c1ccc(C(c2nnnn2Cc2ccco2)N2CCN(c3nc4ccccc4s3)CC2)cc1 (configuration not stated) | -0.9 | i | 0.86 | -1 | 16 | 60 | 118
COc1ccccc1N(CC(=O)N/N=C/c1ccccc1C(=O)O)S(C)(=O)=O | . | i | 1.4 | . | . | . | 100
Cc1ccccc1OCCCCCNCCO | -1.8 | i | 1 | -5 | 9 | 120 | 100
O=C(CN(Cc1ccccc1Cl)C(=O)Cn1nnc(-c2cccs2)n1)NCC1CCCO1 (configuration not stated) | -1.1 | i | 1.1 | -5 | -35 | 57 | 90
COC(=O)C1(NC(=O)NC23CC4CC(CC(C4)C2)C3)CCCCC1 | . | i | 1 | -7 | . | . | 101
Cc1cc(=O)oc2ccc(OCC(=O)N3CCC(C)CC3)cc12 | -1.2 | i | 0.84 | -5 | 50 | 59 | 101
COc1ccc(C(=O)OCC(N)=O)cc1[N+](=O)[O-] | -0.6 | i | 0.92 | -2 | -3 | 139 | 107
COC(=O)c1c(CSc2ccc(C)c(C)c2)noc1C(=O)NCc1ccc(OC)cc1 | 0.1 | i | 1 | 9 | -9 | 54 | 99
COc1cc(C2NC(=O)NC(O)(C(F)(F)F)C2C(=O)c2ccc(Cl)cc2)ccc1O (configuration not stated) | -1.9 | i | 1 | -1 | 18 | 100 | 87
Cc1cccc(NC(=O)CSc2nnc(-c3ccco3)c(-c3ccco3)n2)c1 | . | i | 1 | 10 | . | . | 87
CCOc1ccc2[nH]cc(S(=O)(=O)c3ccc(F)cc3)c(=O)c2c1 | -0.6 | i | 1.1 | 0 | . | . | 143
COc1cc(C(=O)Nc2ccccc2C2COC(=O)C2=N)cc(OC)c1OC (configuration not stated) | -0.6 | i | 1 | -4 | 5 | 83 | 101
Cn1c(Cn2cnc([N+](=O)[O-])n2)nnc1SCC(=O)Nc1ccccc1 | -0.2 | i | 1 | 6 | -48 | 75 | 104
OCCSc1ncnc2c1oc1ccccc12 | -0.9 | i | 0.95 | -2 | 0 | 73 | 101
O=C(c1cc2sccc2n1Cc1ccc(F)cc1)N1CCCc2ccccc21 | -2.7 | i | 0.99 | -1 | -28 | 108 | 107
O=C(CNc1cccc(Cl)c1)NNC(=S)NCc1ccccc1 | . | i | 0.87 | -6 | . | . | 95
N#C/C(=N\Nc1cccc(C(F)(F)F)c1)C(=O)c1csc(-c2cccnc2)n1 | . | i | 0.97 | . | . | . | 100
COc1ccccc1N(Cc1cc(=O)[nH]c2ccccc12)C(=O)c1ccccc1 | . | i | 0.93 | . | . | . | 93
CCOC(=O)c1cc(-c2ccc(C)cc2)n(CCC(=O)NCCN(C)C)c1C | -0.9 | i | 0.91 | 4 | . | . | 104
O=C(c1ccccc1NS(=O)(=O)c1ccc(F)cc1)N1CCCC1 | -1.2 | i | 0.99 | 0 | 33 | 90 | 90
CC(=O)c1cc(-c2ccccc2)n(CC(=O)N2CCC(C)CC2)c1C | -0.8 | i | 1 | -4 | 56 | 40 | 100
O=C(Nc1ccc(Oc2ccc(S(=O)(=O)N3CCOCC3)cn2)cc1)c1ccco1 | -0.1 | i | 0.99 | -3 | 0 | 162 | 94&106
Cc1cc2occ(CC(=O)NC3CCCc4ccccc43)c2cc1C (configuration not stated) | -0.4 | i | 1 | -4 | -20 | 120 | 97
CC1=NN(C(C#N)c2cccc([N+](=O)[O-])c2)C(C)(C)C1 (configuration not stated) | -1.8 | i | 1.1 | 6 | -10 | 91 | 106
COc1cccc(C2CC(=O)N3CN(c4ccccc4F)CSC3=C2C#N)c1 (configuration not stated) | -2.1 | i | 0.93 | -1 | . | . | 51
FC(F)(F)c1cc(C(F)(F)F)n2nc(-c3sccc3-n3cccc3)cc2n1 | -2.6 | i | 0.8 | -13 | 32 | 64 | 98
COCCN1C=C(C(=O)OC)C(c2ccccc2C(F)(F)F)C(C(=O)OC)=C1 | 18* | . | . | 0 | -17 | 158 | 109
NNC(=O)c1ccc(Cn2cc(Br)cn2)o1 | . | i | 1.1 | . | . | . | 110
O=C(Nc1ccc(N2CCOCC2)cc1)c1ccc(S(=O)(=O)NCc2ccco2)cc1 | . | i | 0.91 | . | . | . | 99
O=C(CSc1nnc(COc2cccc3cccnc23)o1)N1CCCC1 | . | i | 0.92 | -7 | . | . | 102
COc1cc2c(cc1OC)C(C)N(C(=O)c1c(C)noc1C)CC2 (configuration not stated) | . | i | 0.78 | . | . | . | 102
COc1ccc(CNC(=O)Cn2nc(Cc3cccnc3)c3ccccc3c2=O)cc1 | -2.1 | i | 1.1 | 0 | . | . | 100
CC(=O)c1c(C)[nH]c(C(=O)COC(=O)CCCOc2ccccc2)c1C | . | i | 0.97 | 1 | -30 | 86 | 107
Cc1cc(=O)n2[nH]c(-c3ccsc3-n3c(C)ccc3C)cc2n1 | . | i | 1.1 | . | . | . | 95
Cc1ccc(-n2c(C)cc(C(=O)COc3cccnc3[N+](=O)[O-])c2C)cc1 | -0.9 | i | 1.3 | 14 | 13 | 114 | 172
O=C(Nc1cccnc1Oc1ccc(Cl)cc1)c1cccc2ccccc12 | . | i | 0.91 | . | . | . | 104
C/C(=C\C(=O)c1ccc(Cl)s1)N(C)C | . | i | 0.91 | -2 | . | . | 102
O=C(Oc1ccccc1[N+](=O)[O-])c1cccnc1 | -4.0 | . | . | -1 | . | . | 100
CCNc1nc(NCC)n2c(SCc3nc4ccccc4c(=O)[nH]3)nnc2n1 | -1.0 | i | 0.87 | -9 | 0 | 94 | 106
NC(=O)c1ccc(NCC2COc3ccccc3O2)c([N+](=O)[O-])c1 (configuration not stated) | . | i | 0.87 | 2 | . | . | 102
Clc1cccc(-c2nnc(SCc3nc4ccccc4[nH]3)n2Cc2ccco2)c1 | -0.6 | i | 0.94 | -8 | -92 | 40 | 126
Cc1c(C(=O)Nc2ccccc2Cl)oc2ccc(S(=O)(=O)N3CCC4(CC3)OCCO4)cc12 | -0.1 | i | 0.77 | -7 | 62 | 191 | 107
COC(=O)C1(C(O)C(=O)c2ccc(C)cc2C)CCCCC1 (configuration not stated) | -1.6 | i | 1.1 | 2 | -100 | 109 | 105
Cc1cccc(-c2noc(CN(C(C)C)S(=O)(=O)c3ccc(F)cc3)n2)c1 | -2.9 | i | 0.83 | -1 | -160 | 137 | 102
Cc1cc(C)cc(Oc2ncnc3c2ncn3Cc2c(Cl)cccc2Cl)c1 | -2.2 | i | 0.84 | -9 | 20 | 99 | 99
O=C(Nc1nnc(SCc2ccc(Cl)cc2)s1)C1CCCO1 (configuration not stated) | -2.8 | i | 0.78 | -3 | 36 | 147 | 103
Cc1cc(C)nc(N2CCC(C(=O)NCc3ccccc3)CC2)n1 | -2.1 | i | 0.74 | -2 | -14 | 125 | 110
Cc1cccc(N2CCN(C(=O)CC(NC(=O)c3ccccc3Cl)c3ccccc3)CC2)c1C (configuration not stated) | 0.7 | i | 0.94 | 9 | -6 | 159 | 102
O=C(/C=C/c1cc([N+](=O)[O-])ccc1OC(F)F)Nc1ccc(OC(F)F)cc1 | . | i | 0.85 | 1 | 29 | 63 | 102
COCCNC(=O)CSc1c2c(nc3ccc(Cl)cc13)CCCC2 | . | i | 0.96 | 5 | . | . | 98
Cc1oc(C(C)(C)C)cc1C(=O)Nc1ccc(C(=O)O)cc1 | -0.1 | i | 0.95 | 9 | -40 | 88 | 104
CCOC(=O)c1sc(=S)n(Cc2ccccc2)c1N | -1.4 | i | 0.9 | -2 | . | . | 97
Clc1ccc(-c2noc(CCCc3ccccc3)n2)cc1 | -0.4 | i | 0.74 | -8 | -22 | 48 | 105
COc1ccc(C(=O)Nc2ccc(-c3nnn(CC(=O)N4CCN(C(=O)c5ccco5)CC4)n3)cc2)cc1 | . | i | 0.93 | 0 | . | . | 115
Cc1ccc(N=C2SC(C(=O)NCCc3ccccc3)CC(=O)N2C)cc1C (configuration not stated) | . | i | 0.93 | -5 | . | . | 105
Cc1ccc(CCNC(=O)NC(C)(C)C)cc1 | -2.4 | i | 1 | 0 | . | . | 104
CCOc1ccc2[nH]c(=O)c(CN(Cc3ccccc3OC)C(=O)c3ccccc3)cc2c1 | -1.9 | i | 0.59 | 5 | -34 | 120 | 103
CN1C(=O)C2(c3ccccc31)N(C)CC(c1ccccn1)C21SC(=S)N(Cc2ccco2)C1=O (configuration not stated) | 0.4 | i | 0.83 | -6 | 0 | 92 | 92
CCC(C)(C)n1nnnc1CN(Cc1cc2cc(OC)c(OC)cc2[nH]c1=O)C1CCCC1 | -0.7 | i | 0.87 | -6 | . | . | 107
COc1ccc(CNC(=O)COC(=O)/C=C/c2cccc(Br)c2)cc1OC | . | i | 0.93 | 4 | . | . | 94
Cc1ccc(-n2c(CNc3cccc(Cl)c3)n[nH]c2=S)cc1 | . | i | 0.96 | 7 | 25 | 157 | 96
NC(=O)C1(N2CCCCC2)CCN(c2ccc3nnc(-c4ccccc4)n3n2)CC1 | -0.4 | i | 0.97 | -18 | . | . | 104
O=C(CSc1nnc(-c2ccncc2)n1Cc1ccco1)OC1CCCCC1 | -0.7 | i | 1.1 | -10 | 7 | 63 | 104
CN1CCN(C(=S)c2cn(Cc3ccc(Br)cc3)c3ccccc23)CC1 | . | i | 0.88 | 0 | -33 | 128 | 106
FC(F)(F)COc1ccc(-c2nnc(SCc3c(Cl)cccc3Cl)o2)cn1 | . | i | 0.99 | . | . | . | 101

Assay outcomes as filed in PubChem BioAssay.
